# Source: PubChem BioAssay (National Center for Advancing Translational Sciences (NCATS))
# gsp agonist: gsp mutant agonism. Potency, µM (doses to about 76.9 µM), without a hit: at the top dose activation (cAMP increase), hits mostly activators. 340,000 tested, 0.13% active. gsp mutant cells, cAMP HTRF, 30 min; control for the full effect not named in the record; active = well fitted activation curve with a large enough effect; inconclusive = small, poorly fitted or top-dose-only effect, or another doubt; inactive = no such curve, though single readings can be large or run the other way; cell line not stated here;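 note: phosphodiesterase inhibitor Ro 20-1724 added with compounds to block cAMP breakdown; potency is the fitted concentration of half-maximal effect; nearly all actives have a fitted effect of over 60% in size; about a fifth of the inactives were tested at one dose only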
#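 Cells stably selected in G418 were plated at 2000/well, grown 16-24 hr, then given compounds in DMSO with the PDE inhibitor […] (300 uM solution added) for 30 min at 37C; cAMP was read by HTRF.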
# TRPML1 blocker: blocks the human TRPML1 channel; Q9GZU1; TRPML1-inducible cells, Ca2+ dye fluorescence, FDSS; active compounds read low; inhibition of EC80 agonist-evoked calcium signal; 390,000 tested, 0.02% active; activity change, negative = inhibition, % (test concentration not listed); AID 624415; in the data active means activity change below about -50%; inconclusive means about -30% to -50%; inactive means above about -30%;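 note: stimulus is agonist 54-4 at its EC80 concentration; % is set by controls: 0 for no effect and ±100 for the full control effect; compound concentration not given in the record; the text of the record puts the active cut at -80%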
# Target sequence (Q9GZU1 whole entry, looked up): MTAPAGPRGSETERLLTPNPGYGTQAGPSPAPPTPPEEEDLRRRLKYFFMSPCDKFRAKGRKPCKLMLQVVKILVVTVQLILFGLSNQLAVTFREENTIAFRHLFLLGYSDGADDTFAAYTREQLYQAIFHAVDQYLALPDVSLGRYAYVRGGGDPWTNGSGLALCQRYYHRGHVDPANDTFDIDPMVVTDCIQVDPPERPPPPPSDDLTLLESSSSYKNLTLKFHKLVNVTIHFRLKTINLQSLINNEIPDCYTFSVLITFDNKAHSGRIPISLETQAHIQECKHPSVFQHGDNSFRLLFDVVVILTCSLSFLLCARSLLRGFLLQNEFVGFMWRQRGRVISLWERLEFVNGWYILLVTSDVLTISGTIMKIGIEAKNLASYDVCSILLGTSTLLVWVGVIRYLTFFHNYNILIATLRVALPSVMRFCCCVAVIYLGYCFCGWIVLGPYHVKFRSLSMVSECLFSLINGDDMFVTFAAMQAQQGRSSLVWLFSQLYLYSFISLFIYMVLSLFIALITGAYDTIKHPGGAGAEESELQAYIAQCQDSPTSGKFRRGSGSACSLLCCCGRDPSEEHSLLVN
#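 TRPML1-DL cells, Tet-induced overnight (~16 h, 37 °C) at 1,500 cells/well, were loaded with Ca8 no-wash dye plus quencher for 45-90 min at room temperature. Compounds were pinned during FDSS kinetic reading; agonist 54-4 at EC80 (4 uM final) then added.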
# Sfp inh: inhibitors of Bacillus subtilis Sfp phosphopantetheinyl transferase. 310,000 tested, 3.5% active. Potency, µM, for inactives: max response, negative = inhibition, most hits filed as inhibitors. Biochemical Sfp PPTase activity, qHTS. Q9F4F7; active = well fitted inhibition curve with a large enough effect; inconclusive = small, poorly fitted or top-dose-only effect, or another doubt; inactive = no such curve, though single readings can be large or run the other way;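 note: the enzyme is Sfp with the accession as filed and its product quenches rhodamine fluorescence; potency is the fitted concentration of half-maximal effect; 0% = enzyme reaction without inhibitor and -100% = no enzyme wells; top concentration of the series not given in the record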
#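 Buffer: 50 mM Hepes-Na pH 7.6, 10 mM MgCl2, 0.01% Nonidet P-40, 0.01% BSA. Enzyme 15 nM, pre-exposed to compound 15 min; substrates then added and fluorescence change tracked over 30 min.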
# TRPV1 potentiator: potentiators of human vanilloid receptor 1 (TRPV1); Q8NER1; TRPV1-expressing cells, Fluo-8 calcium influx, capsaicin EC20 potentiation; host cell line not named in the record; control for the full effect not named in the record; AID 540277; 320,000 tested, 0.02% active; potentiation, % at 8.33 µM; active means potentiation above 80%; inconclusive means 30% to 80%; inactive means below 30%; note: 0% is about no effect
#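 Cells expressing TRPV1 were dye-loaded with Fluo-8 and read kinetically: 10 s baseline, 3 min after compound (agonist portion), then 2 min after EC20 capsaicin (allosteric enhancer portion). Calcium-bound dye fluorescence at 480/520 nm.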
# gsp antag: antagonizes gsp, the McCune-Albright syndrome mutation; gsp-mutant cells, cAMP HTRF, 30 min; control for the full effect not named in the record; Potency, µM (series often up to 76.9 µM), for the others: at the top dose activity change, negative = inhibition, most hits filed as inhibitors; 340,000 tested, 0.4% active; AID 624288; active = falling curve of any shape with a large fitted effect; inconclusive = falling curve, mostly with a smaller effect; inactive = flat or rising curve; cell line not stated here;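 note: intracellular cAMP measured with PDE inhibitor Ro 20-1724 present during compound exposure; potency is the fitted concentration of half-maximal effect; % is set by controls: 0 for no effect and ±100 for the full control effect; nearly all actives have a fitted effect of over 65% in size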
#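 HTRF cAMP measurement after 30 min RT detection following 30 min, 37C compound treatment alongside […] (added as 300 uM solution) in G418-selected cells seeded at 2000/well and grown 16–24 h.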
# ClpP mod: qHTS Assay for Activators of ClpP; ATP-dependent Clp protease proteolytic subunit (Bacillus subtilis (strain 168)), P80244; 340,000 tested, 1.9% active; Potency, µM (doses to about 57.5 µM), for inactives: top-dose activity change, negative = active; AID 651965, 2013; purified B. subtilis ClpP, FRET peptide cleavage, 20 min; active = well fitted falling curve with a large enough effect; inconclusive = small, poorly fitted or top-dose-only effect; inactive = no such curve, though single readings can be large or run the other way; note: potency is the fitted concentration of half-maximal effect; the source files actives as falling curves though it sought activators and does not explain the sign; nearly all actives have a fitted effect of over 65% in size; many hits overshoot -100%
# Target sequence (P80244 whole entry, looked up): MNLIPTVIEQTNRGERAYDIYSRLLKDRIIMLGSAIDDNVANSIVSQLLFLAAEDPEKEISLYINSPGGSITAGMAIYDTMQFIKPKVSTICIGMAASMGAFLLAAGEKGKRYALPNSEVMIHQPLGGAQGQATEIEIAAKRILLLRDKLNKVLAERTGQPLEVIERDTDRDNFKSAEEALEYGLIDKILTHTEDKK
#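 FRET quenching reversal measured ClpP activation: 10 microg/mL B. subtilis ClpP at pH 8 with the FRET-FV decapeptide, read at 430 nm after 320 nm excitation. The 20-min minus 0-min signal was scaled between DMSO/no-enzyme wells and ADEP (5.8 microM final).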
# Menin-MLL FL inh: menin-MLL binding inhibition, fluorescein peptide; AID 1766; 290,000 tested, under 10 active; Fluorescence polarization, fluorescein-MLL peptide displacement from menin; FP activity change, % at 61.4 µM; inconclusive = falling polarisation curve, or a change in total fluorescence; inactive = total fluorescence flat and polarisation flat or rising; no compound was filed as active; the % refers to the polarisation; negative = inhibition;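 note: % of control where 0% means no effect; inhibitors lower the polarisation; unlabelled MLL peptide was the positive control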
# * marks the source's active call; other numbers are inactive results; ? = inconclusive; . = not tested or not shown; [ ] = remark or other dose.
SMILES,gsp agonist,TRPML1 blocker,Sfp inh,TRPV1 potentiator,gsp antag,ClpP mod,Menin-MLL FL inh
CN1C(=O)CCC1(O)c1ccccc1 (stereo not drawn),-62%[inhibitor],60,28%,?,4%,-1.8%,2.8
CC(C)c1cc(NC(=O)C(C)(C)C)cc(C(C)C)c1O,1%,-3,2%,19,-1%,-0.9%,3.3
COCCCn1c(C)cc(C(=O)COC(=O)C23CC4CC(CC(O)(C4)C2)C3)c1C,2%,-11,.,-2,13%,28µM*,.
CCCCn1c2c(cc(C(=O)OC)c1=O)C(=O)CCC2,.,20,.,.,8%,5.1%,.
CCCCn1c(N)c(N(CCC(C)C)C(=O)c2ccc([N+](=O)[O-])s2)c(=O)[nH]c1=O,9%[15.4 µM],-8,.,4,-3%,.,.
O=C(NC12CC3CC(CC(C3)C1)C2)N1CCN(c2nc(-c3ccccc3)cs2)CC1,-8%,26,1%,-4,-15%,0.6%,-2.5
COc1cccc(CNC(=O)C(CCSC)NS(=O)(=O)c2ccc3c(c2)oc(=O)n3C)c1 (stereo not drawn),22%,-17,6%,-10,16%,0.2%,3.5
Cc1nn(C)cc1/C=N/NC(=O)C1(O)c2ccccc2-c2ccccc21,?,18,8%,4,7%,-14%,3.1
COc1ccccc1NC(=O)COC(=O)Cc1cccs1,-4%[15.4 µM],7,9%,3,14%,.,0.1
CN1C(=O)C2(c3ccccc31)c1c(oc3ccccc3c1=O)C(=O)N2CCCO (stereo not drawn),1%[15.4 µM],11,17%,-6,-7%,-2.2%,0.1
CCc1cccc(NC(=O)CCc2c(C)nn(-c3ccc(N4CCOCC4)nn3)c2C)c1,-12%,5,20%,-1,-10%,2.5%,.
CCOC(=O)c1cn(CC(=O)Nc2ccc(CC)cc2)nn1,-9%,90,-11%,21,-5%,0.4%,0.7
CC(C)(C)OC(=O)N1CCC(C(=O)N2CCOCC2)CC1,3%,9,23%,-8,3%,0.5%,4.7
CN(CC(=O)N1CCN(Cc2ccccc2)CC1)C(=O)Cc1ccc(Cl)c(Cl)c1,-7%,-7,.,.,-3%,.,.
CC(C)(C)c1cc(C(C)(C)C)n(-c2ccccc2)n1,0%,5,-5%,4,0%,?,.
O=C(NCc1ccc(F)cc1)Nc1ccc(Cl)cc1,-16%[15.4 µM],39,11%,-11,1%,-1.0%,7.8
COc1cc(/C=C(\C#N)C(=O)NCc2ccccc2)ccc1OCc1ccc(C(=O)O)cc1,-49%[inhibitor],.,8%,-9,?,-4.9%,-2.5
O=C(Nc1sc2c(c1C(=O)O)CCCCC2)c1ccco1,9%,13,16%,9,?,-4.0%,0.4
COc1ccccc1[C@H]1C(c2ccccc2)=NN(c2ccccc2)[C@@H]1CO,.,8,32%[activator],.,1%,3.7%,1.4[94.6 µM]
COc1ccc(CNC(=O)CSc2nnc(C)n2-c2ccc(F)cc2)cc1,-4%[15.4 µM],-8,5%,-5,-3%,.,-0.4
COc1cc(/C=N/NC(N)=S)ccc1OC(=O)c1ccc(C)cc1,6%,24,-8%,1,-3%,3.8%,0.6
CCOC(=O)C1=C(C)C(c2ccc(OC)cc2OC)NC(=O)N1 (stereo not drawn),26%,18,4%,-1,-4%,0.6%,1.1
O=C(CSc1ccc(C(F)(F)F)cc1[N+](=O)[O-])Nc1ccc2ccccc2c1,8%,-6,5%,2,14%,28µM*,.
COC(=O)c1ccccc1SCc1csc(C)n1,19%,-30,15%,10,5%,.,-2.3
CC12CCC(C(=O)N3CCCCC3)(CC1=O)C2(C)C (stereo not drawn),-34%[inhibitor],-17,1%,-22,5%,-2.1%,-1.0
Cc1cc(C)nc(/N=C(\N)Nc2ccc(OCCC(C)C)cc2)n1,-5%[15.4 µM],-15,-16%,-28,-4%,-2.7%,-0.8
O=C(C1CCCN1S(=O)(=O)c1cccc2nsnc12)N1CCCCCC1 (stereo not drawn),-23%,8,26%,13,5%,0.4%,0.3
COc1cccc(-c2ccc(SCC(=O)N3CCOCC3)nn2)c1,4%[15.4 µM],-2,18%,1,5%,.,-1.1
O=C(NCc1cccc(F)c1)C1CCN(S(=O)(=O)Cc2ccccc2)CC1,-37%[inhibitor],0,26%,4,4%,-1.6%,-1.9
CCN(C(=O)COC(=O)c1cc([N+](=O)[O-])ccc1N1CCOCC1)c1ccccc1,-13%,-2,.,-15,-20%,1.2%,.
CC(C)NC(=O)C1CCN(Cc2cccc(Oc3ccccc3)c2)CC1,-3%,-7,-13%,0,6%,-1.4%,-2.9
CCOC(=O)C1=CN(Cc2cccc(F)c2)S(=O)(=O)NC1c1ccccc1 (stereo not drawn),.,5,.,.,-4%,-2.6%,.
Oc1ccc(/C=N/N2CCN(C3c4ccccc4-c4ccccc43)CC2)cc1O,9%[15.4 µM],-1,56µM*,-17,2%,.,3.4
c1ccc(CSc2nnc(NC3CCCCC3)s2)cc1,-10%,-1,.,.,.,-2.5%,.
Cc1cc(C)cc(N(CC(=O)O)S(=O)(=O)c2c(C)noc2C)c1,-15%,12,25%,3,5%,-16%,12
CC(C)(C)Nc1nc(Cl)nc(N(C#N)CN2C(=O)c3ccccc3S2(=O)=O)n1,1%[15.4 µM],15,12%,-3,-19%,.,-0.4
CCOC(=O)c1c(NC(=S)Nc2ccc(OC)cc2)sc2c1CCC2,14%,9,?,3,-26%,-2.6%,7.6
O=C(Nc1ccc2c(c1)OCO2)C(c1ccccc1)N1CCC2(CC1)OCCO2 (stereo not drawn),3%,-3,4%,-12,14%,1.4%,0.3
O=C(Nc1ccccc1)Nc1cccc2nsnc12,3%[15.4 µM],-6,63µM*,-3,-16%,?,8.6
Cc1ccc(S(=O)(=O)N2CCOCC2)cc1C(=O)OCC(=O)NC1CCCC1,?,18,.,.,13%,0.2%,.
Cc1cc(C)nc(SCc2nnc(SCC(N)=O)o2)n1,-44%[inhibitor],-6,13%,-9,18%,2.3%,0.9
C=CCn1c(SCCOc2ccc(OC)cc2)nnc1C(C)NC(=O)Cc1ccc(OC)cc1 (stereo not drawn),3%,31,-1%,9,?,-1.3%,-2.0
O=C(NCc1nc2ccccc2[nH]1)c1cc2ccccc2oc1=O,29%,18,0%,-5,17%,-20%,2.1
O=C1C(=O)N(Cc2cccs2)c2ccccc21,15%[15.4 µM],-4,10%,-3,4%,267%,0.1
Cc1cccc(C(=O)OCC(=O)Nc2ccc3c(c2)OCCO3)c1O,?,7,.,0,-1%,80%,.
Cc1ccc2nc(N3CCN(C(=O)c4ccccc4F)CC3)c(C#N)cc2c1,-5%,-3,.,.,-8%,.,.
CCOC(=O)C1C(c2ccc(O)c(OC)c2)NC(=O)NC1(O)C(F)(F)F (stereo not drawn),-21%,-11,0%,8,3%,0.9%,-2.1
Cc1ccc(CN2C3=NC(=O)CN3c3ccccc32)cc1,-7%,0,-4%,3,4%,-1.8%,2.2
Cc1cccc(N2CC(c3nc4ccccc4n3C)CC2=O)c1C (stereo not drawn),9%,1,11%,10,-2%,2.2%,-1.1
COC(=O)c1ccc(C)c(NC(=O)CN2C(=O)c3ccccc3S2(=O)=O)c1,5%,11,?,-3,-5%,-1.9%,-1.5
Cc1cccc(C)c1NC(=O)CSc1nnc(-c2cnccn2)n1C,10%,-10,3%,3,-2%,-0.1%,.
O=C(Nc1cccc(Cl)c1)OCCOCCOC(=O)Nc1cccc(Cl)c1,-37%[inhibitor],-10,.,.,-9%,.,.
CN(C)C(=O)CCSc1nnc(-c2ccco2)o1,0%[15.4 µM],-17,20%,-2,5%,-0.7%,3.2
O=C(Nc1cccc(Cl)c1)c1nc[nH]c1C(=O)N1CCc2ccccc2C1,6%,3,.,8,-9%,92%,.
CC(=O)Nc1ccc(S(=O)(=O)n2cnc(C)c2)cc1,?,-15,-4%,.,-6%,-1.6%,0.7
CCC/C(=N/NC(=O)c1nnn(-c2nonc2N)c1CN1CCCCC1)c1ccccc1,-3%,0,.,.,-5%,-2.3%,.
COCC(=O)n1nc(-c2ccccc2)nc1NCc1ccc(F)cc1,-19%,-1,14%,2,13%,3.5%,3.0
O=C(O)CSc1nnc(-c2ccc(Cl)cc2)n1-c1ccccc1,.,.,13%,3,.,.,-0.7
Cn1cccc1C1Nc2ccccc2NC2=C1C(=O)CC(C)(C)C2 (stereo not drawn),-27%,-3,-21%,1,-6%,-2.6%,?
Cc1ccc2nc(C3CCN(C(=O)NCc4ccccc4)CC3)[nH]c2c1,4%,6,-1%,-3,0%,-2.0%,0.8

# (more compounds)
SMILES,gsp agonist,TRPML1 blocker,Sfp inh,TRPV1 potentiator,gsp antag,ClpP mod,Menin-MLL FL inh
CCN(Cc1nc2cc(Cl)ccc2c(=O)[nH]1)C(=O)CN1C(=O)NC2(CCCCC2C)C1=O (stereo not drawn),-2%,38,.,20,4%,-2.5%,.
COC(=O)c1c(C(C)=O)c(C)n(C)c1C,2%,10,7%,-2,11%,.,2.2
COc1ccc(NC(=O)Cn2c(=O)n(CC3CCCO3)c(=O)c3cc(OC)c(OC)cc32)cc1OC (stereo not drawn),-2%,0,22%,25,2%,-12%,-1.4
Nc1cc(OCC(F)(F)F)cc([N+](=O)[O-])c1,5%[15.4 µM],25,-2%,-5,12%,-1.8%,-0.1
O=C(NCCc1nc(-c2ccccc2)no1)c1ccco1,-11%,24,.,.,3%,-1.7%,.
Cc1cccc(N(C(=O)c2ccc(CN3CCOCC3)o2)C(C(=O)NC(C)(C)C)c2ccc(F)cc2)c1 (stereo not drawn),30%,5,-3%,-13,1%,1.4%,5.1
O=C(N/N=C/c1c[nH]c2ccc(Br)cc12)c1ccc2c(c1)OCO2,4%[15.4 µM],26,-9%,9,-20%,2.1%,-2.6
CCOC(=O)CSc1nc2c(c(=O)n(Cc3ccccc3Cl)c(=O)n2C)n1C,0%,4,-22%,-11,?,-1.7%,-1.3
CCN1CCCC1CNC(=O)c1ccc2c(c1)NC(=O)/C(=C\c1ccc(C)cc1)S2 (stereo not drawn),9%,-11,50µM*,3,3%,-3.2%,-1.9
Cc1c(SCCO)c(=O)[nH]c2cc3c(cc12)OCO3,?,1,12%,8,6%,25µM*,1.6

# Rows were taken by chance (roughly 4.9% active in at least one column).
